# Source: PubChem (ICCB-Longwood Screening Facility, Harvard Medical School)
# AID504770 = growth inhibitors of E. coli YBA685 in a screen for V. cholerae RctB (chromosome II replication) inhibitors; E. coli YBA685 rctB-dependent plasmid, OD600 growth, 3 h; active compounds read low; z-score (concentration not given with the values); 130,000 compounds, 0.27% hits;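 active means z-score under -2 on both plates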;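 further: wells of about 30 µL received 100 nL stock; score is relative to mean and SD of the test wells; the first replicate is given; strong numbers were not always called active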
# CapD inh = blocks the Bacillus anthracis CapD enzyme | purified CapD enzyme, fluorescence intensity read-out; active compounds read low; some hits fall short of the stated cut | z-score (test concentration not listed) | 140,000 compounds, 0.23% hits | AID 492967;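 active means z-score under -4 in either of two replicates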;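 further: stock transfer was 100 nL into about 40 µL; score is relative to mean and spread of the plate; one replicate is shown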
# * marks the source's active call; other numbers are inactive results; nt = no result given.
# Preview (two entries):
SMILES,AID504770,CapD inh
COc1ccccc1N1CCN(C(=O)c2cnn(-c3ccc(Cl)cc3)c2C)CC1,1.9,-0.57
CC(=O)N1C(=S)NC(=O)/C1=C/c1cc2ccc(C)cc2nc1N1CCOCC1,nt,-0.11

# The list itself, repeating the preview:
SMILES,AID504770,CapD inh
COc1ccccc1N1CCN(C(=O)c2cnn(-c3ccc(Cl)cc3)c2C)CC1,1.9,-0.57
CC(=O)N1C(=S)NC(=O)/C1=C/c1cc2ccc(C)cc2nc1N1CCOCC1,nt,-0.11
CCC1(CCc2ccncc2)C(=O)NC(=O)NC1=O,-1.1,nt
c1ccc(-c2nc3sc(-c4ccccc4)nc3s2)cc1,-0.55,4.2
CC(C)NC(=S)N/N=C/c1cccc(O)c1,-0.35,nt
O=C(CSc1nnc(CNC(=O)c2ccc(S(=O)(=O)N3CCOCC3)cc2)n1-c1ccc(F)cc1)Nc1nccs1,nt,-0.3
CN(C)NC(=S)NC(=O)C12CC3CC(CC(C3)C1)C2,1.9,nt
CC(C)N(C(=S)Nc1cccc(C(F)(F)F)c1)C(C)c1ccccn1 (centres undefined),-1.5,8.2
CCC(=O)N1C(C(=O)NCc2ccccc2F)CSC12CCN(C)CC2 (centres undefined),0.75,0.035
O=C(Nc1ccc2c(c1)C(=O)OC2)c1cccs1,-0.55,0.5
CN1CCN(C(=O)c2cc(-c3ccc(F)cc3)on2)CC1,0.5,-0.33
COC(=O)C1=C(C(=O)OC)SC(=C2C(=S)C(C)(C)N(C(=O)CCC3CCCCC3)c3cc(C)c(C)cc32)S1,nt,1.1
COc1cc(C(=O)COC(=O)CSc2nc3ccccc3o2)ccc1OC(F)F,-0.35,nt
Cc1c(C(=O)NCCN2CCOCC2)sc2ncnc(N3CCN(c4ccccc4F)CC3)c12,nt,-0.33
COc1ccc(CCNC(=O)C(F)(F)F)cc1,0.4,0.39
Cc1ccsc1-c1nc(CSCC(=O)NCc2ccc3c(c2)OCO3)c(C)o1,-1.4,-0.11
O=C1CSC(c2ccccc2)N1c1cccnc1 (centres undefined),1.4,0.16
COC(=O)C1=C(C)NC(=O)CC1c1ccccc1 (centres undefined),2.6,nt
COc1cccc(CN2CCCC(COC(=O)N3CCN(c4cc(C(F)(F)F)ccn4)CC3)C2)c1[N+](=O)[O-] (centres undefined),nt,20
O=C(c1cccc(Oc2ccccc2)c1)N1CCN(C2CCS(=O)(=O)C2)CC1 (centres undefined),1.7,nt
CCN(CC)S(=O)(=O)c1ccc(Sc2nncs2)nc1,0.3,nt
CC1(C)CC(NCC(=O)NC2CC(C)(C)NC(C)(C)C2)CC(C)(C)N1,0.5,nt
O=C(COC(=O)CCC1CCCC1)Nc1ncc(C(F)(F)F)cc1Cl,-0.45,2.9
Cc1nc2ccn(Cc3ccco3)c(=O)c2cc1C(=O)NCc1ccco1,0.15,23
COc1ccc(-c2nc3c4c(-c5ccccc5)c(-c5ccccc5)oc4ncn3n2)cc1,nt,0.59
CCOC(=O)C1=C(O)/C(=C/c2ccc(Cl)cc2)SC1=Nc1ccccc1,nt,-0.6
COc1ccccc1C(CNC(=O)c1cccc(-n2cnnn2)c1)N1CCCC1 (centres undefined),-1,nt
Cc1ccc(S(=O)(=O)NC(=O)Nc2ccc3c(c2)CCN3S(C)(=O)=O)cc1,nt,0.15
CCN(CC)c1ccc2cc(-c3nc(-c4ccccc4)cs3)c(=O)oc2c1,nt,-0.49
COC(=O)CCCC[C@H]1SC[C@H]2NC(=O)N[C@]21O,-1.1,0.13
COc1cc(C(=O)N2CCC(c3nc(-c4ccncc4)no3)CC2)cc(OC)c1OC,nt,-0.13
N#CC(C#N)=Cc1sccc1C1OCCO1,-1.4,-1.8
COc1ccc(NC(=O)Cn2cnc3sc(C(=O)Nc4ccc(C)cc4Br)c(C)c3c2=O)cc1,nt,-0.15
COC(=O)[C@H]1[C@H]2C[C@@H]3c4[nH]c5cc(OC)ccc5c4CCN3C[C@H]2C[C@@H](OC(=O)/C=C/c2cc(OC)c(OC)c(OC)c2)[C@@H]1OC,nt,2
Cc1ccccc1OC(C)C(=O)O/N=C(\N)c1cccnc1 (centres undefined),0.05,-0.48
O=C(Cn1c(NCc2ccccc2)nc2ccccc21)N1CCCC1,-0.45,nt
S=C(NCc1ccco1)N/N=C1\CSCc2ccccc21,-0.3,-0.3
Cc1ccc2[nH]c(=O)c(CN(Cc3cccnc3)S(=O)(=O)c3ccccc3)cc2c1,-1.6,nt
COc1ccc(C2NCCc3c2[nH]c2ccccc32)cc1CSc1nc2ccccc2[nH]1 (centres undefined),nt,0.26
Cc1ncc(CO)c(/C=N/NC(=O)c2ccc(O)cc2)c1O,1.3,-0.43
CC12COC3(C(=O)N4CCN(c5ccccn5)CC4)CC1CCC32C (centres undefined),nt,1.4
O=C(O)CCC(=O)N1N=C(c2c(-c3ccccc3)c3cc(Br)ccc3[nH]c2=O)CC1c1ccco1 (centres undefined),nt,1.5
Cc1ccc(C=C2C(=O)OC(C)(C)OC2=O)o1,nt,-0.34
COc1ccc(NC(=O)C(c2ccc(C)cc2)N(Cc2ccco2)C(=O)c2cnccn2)cc1 (centres undefined),-0.3,0.01
O=C(NCCN1CCCC1)C1=Cc2sc3c(c2CS1)CCCC3,2.9,-0.24
O=C(CP(=O)(CO)CO)c1ccc(Cl)cc1,0,nt
c1coc(CSCc2ccc3nonc3c2)c1,-1.2,-0.52
O=C(c1ccco1)N1CCN(c2nc(-c3cccs3)ns2)CC1,0.15,0.11
CCOC(=O)N1CCc2c(sc3c2c(=O)n(-c2ccc(F)cc2)c(=O)n3CC(=O)N(CC)CC)C1,-0.85,-0.83
CC(C)NS(=O)(=O)Cc1ccc(C#N)cc1,-0.15,nt
Cc1csc(NC(=O)CSc2ccccc2)n1,-0.55,nt
Nc1cc(C(F)(F)F)ccc1Sc1nc2ccccc2s1,-0.4,0.51
O=C(CSc1ssc(=S)c1-c1ccccc1)Nc1ccc(F)c(F)c1F,nt,-1
CCCn1cc(S(=O)(=O)CC(=O)N2CCc3ccccc32)c2ccccc21,1.3,0.36
CCCn1c(NCc2ccc(C)o2)nc2ccccc21,0.45,0.29
O=C(/C=C1\OC(=O)c2ccccc21)Oc1cc(Cl)cc(Cl)c1,-0.75,0.34
Clc1cccc(C2N(c3ccccc3)CCN2c2ccccc2)c1Cl,nt,2.5
CC(=O)N/C(N)=N/c1nc2ccccc2o1,-1.1,-0.71
CCOC(=O)c1cc2cc(OCc3ccccc3)ccc2[nH]1,nt,57
CC(C)OC(=O)Cn1cc(/C=C2/SC(=O)NC2=O)c2ccccc21,1.1,nt
# Next results follow:
SMILES,AID504770,CapD inh
Cc1cc(=O)oc2c3c(c(NC=O)cc12)O/C(=C\c1ccccc1)C3=O,nt,-0.24
CCCS(=O)(=O)c1c(S(=O)(=O)CCC)c2cc(-c3ccncc3)ccn2c1C(=O)c1ccc(OC)cc1,nt,0.3
C=CCn1c(-c2nonc2NC(=O)c2ccccc2Cl)nc2ccccc21,0.3,0.92
Cc1nc(/N=C(/N)NC(=O)c2ccccc2)nc2ccccc12,0.6,-0.41
O=C(Cn1ncc2ccccc21)N1CCc2ccccc2C1,0.1,-0.93
COc1ccc(CCOC(=O)N2CCCC2C(=O)OCc2ccc([N+](=O)[O-])cc2)cc1 (centres undefined),nt,-0.22
O=C(N/N=C/c1c[nH]c2ccccc12)c1ccccc1OC(F)(F)F,nt,-0.88
COc1ccccc1CNc1nc(-c2cc(OC)c(OC)c(OC)c2)nc2ccccc12,nt,1.9
CCN(Cc1ccc2c(c1)OCO2)C(=O)c1cc(F)c(F)cc1Cl,0.5,nt
O=C(Nc1cc(C(=O)N2CCCCCC2)ccc1N1CC2CC(C1)c1cccc(=O)n1C2)c1cccc(C(F)(F)F)c1 (centres undefined),nt,-0.1
COc1cc(C(CC(=O)N2CCCCC2)N2Cc3ccccc3C2=O)cc(OC)c1OC (centres undefined),-0.15,0.09
COc1ccc(-c2cc(-c3ccccc3)c(C#N)c(S(C)=O)n2)cc1 (centres undefined),nt,16
N=C(N)N=Nc1ccc(NN=C(N)N)cc1,0.8,nt
O=C(COc1ccccc1Br)Nn1c(=S)[nH]c2ccccc2c1=O,-0.3,0.33
CCOC(=O)C1CCN(C(=O)Nc2ccccc2)CC1,1.2,0.45

# 5 entries already listed, arranged by heavy-atom count, largest number first:
SMILES,AID504770,CapD inh
COc1cc(C(CC(=O)N2CCCCC2)N2Cc3ccccc3C2=O)cc(OC)c1OC (centres undefined),-0.15,0.09
Cc1cc(=O)oc2c3c(c(NC=O)cc12)O/C(=C\c1ccccc1)C3=O,nt,-0.24
O=C(N/N=C/c1c[nH]c2ccccc12)c1ccccc1OC(F)(F)F,nt,-0.88
CCOC(=O)C1CCN(C(=O)Nc2ccccc2)CC1,1.2,0.45
N=C(N)N=Nc1ccc(NN=C(N)N)cc1,0.8,nt

# (continued)
SMILES,AID504770,CapD inh
Cc1ccc(C(=O)N2CCN3C(=O)c4ccccc4C23c2ccccc2)cc1 (centres undefined),nt,-0.22
CCOC(=O)c1ccc2nc(C(F)(F)F)nc(NCCc3ccc(OC)cc3)c2c1,-0.5,-0.25
C#CCN1C(=O)C(O)(CC(=O)c2ccc(OC)c([N+](=O)[O-])c2)c2ccccc21 (centres undefined),nt,-0.26
Cc1n[nH]c(C)c1S(=O)(=O)Nc1ccc(S(=O)(=O)N2CCCCCC2)cc1,-0.4,nt
COc1cc(C(=O)N(Cc2ccc(Cl)cc2)Cc2ccc3cc[nH]c3c2)cc(OC)c1OC,nt,-0.57
C=CCn1c(SCC(=O)N2CCN(c3ccc(F)cc3)CC2)nnc1-c1ccco1,-0.35,0.59
Cn1c(SCC(=O)OCC(=O)c2ccc(Br)cc2)nc2c1c(=O)[nH]c(=O)n2C,-0.2,0.12
COc1cc(/C=C2\C(=O)NC(=O)N(C)C2=O)ccc1OCc1ccc(C(=O)O)cc1,nt,0.81
CNS(=O)(=O)c1cn(CC(=O)NCc2ccccn2)cc1S(=O)(=O)NC,0.75,0.035
COC(=O)c1ccc(N2C(=O)c3ccc(N)cc3C2=O)cc1,-0.25,nt
CC1CCCC(C)N1C(=O)COC(=O)c1ccc(NS(=O)(=O)c2ccc3c(c2)OCCO3)cc1 (centres undefined),-0.75,nt
CC(=O)Nc1ccc(Cc2ccc(NC(C)=O)cc2)cc1,0.7,0.64
CSc1nnc(NC(=O)c2cccs2)s1,-0.7,-0.35
Cc1ccc2c(c1)C1(C(=O)N2)C(C#N)=C(N)OC2=C1C(=O)CCC2 (centres undefined),nt,0.57
O=S(=O)(c1ccc(NCCOc2ccccc2)nc1)N1CCCC1,-0.35,nt
NC(=O)c1ccc(-c2ccc(Cl)cc2)s1,2.3,82
CCN(CC)C(=O)Oc1ccnc2cc(Cl)ccc12,0.25,-0.08
O=P(c1ccccc1)(c1nc2ccccc2s1)N1CCCCCC1 (centres undefined),-0.65,-0.17
COC(=O)CCC(=O)c1oc2ccc(Br)cc2c1N,0.3,2.1
O=C(Nc1ccccc1)O/N=C/c1ccccc1,-0.3,0.21
NC(Cn1ccnc1)c1ccccc1 (centres undefined),-1,0.06
COc1ccccc1N1CCN(C(=S)c2ccccc2OC(F)(F)F)CC1,-0.75,-0.11
CC1=NN(C)C(=O)/C1=C/c1c(C)[nH]n(C)c1=O,nt,-0.18
CCc1cc2c(C)cc(=O)oc2cc1OC(=O)[C@@H]1CCCN1C(=O)OC(C)(C)C,0.6,nt
Nc1ccc2nc(SCC(=O)Nc3ccc4nc(SCC(=O)NC5CC5)sc4c3)sc2c1,nt,-0.055
CCc1nnc2sc(-c3ccc(N)cc3)nn12,-0.15,-0.095
CC1CC(NC(=S)N(C)C)CC(C)(C)C1 (centres undefined),-0.35,0.26
Cc1cc(C(=O)COC(=O)Cc2n[nH]c(=O)c3ccccc23)c(C)n1-c1ccc2c(c1)OCO2,0.1,nt
CN1CCN(c2c3c(nc4ccccc24)C2(C)CCC3C2(C)C)CC1 (centres undefined),0.25,0.47
CCC(C)NC(=O)C1CCN(S(=O)(=O)c2cccc3nsnc23)CC1 (centres undefined),-1.6,-0.24
O=S1(=O)CCN(Cc2cccc(C(F)(F)F)c2)CC1,-2.7*,0.15
O=C(CSc1nc2ccccc2[nH]1)Nc1cccc(Oc2ccccc2)c1,0.3,0.71
CCc1nnc(NC(=O)CCCOc2ccccc2C)s1,nt,0.02
COC(=O)c1onc(-c2c(Cl)cccc2Cl)c1C(=O)OC,nt,0.015
Oc1ccccc1-c1cc(C(F)(F)C(F)F)no1,-1.6,8.2
CCn1c(SCc2nc3ccccc3[nH]2)nc2ccccc21,-0.15,1.2
O=C(NCc1ccco1)c1cc(-c2ccccc2)c(N2CCOCC2)s1,-0.5,0.68
O=C(OCC(=O)c1ccc[nH]1)c1ccc(CN2CCCC2=O)cc1,1.1,nt
CCOC(=O)C1=C(N)OC2=C(C(=O)CCC2)C1c1ccsc1 (centres undefined),nt,-0.4
Cn1ncc(Br)c1C(=O)NN,0.2,0.18
COc1cc(/C=C2/SC(=S)N(CC(=O)O)C2=O)ccc1Oc1ccc([N+](=O)[O-])cc1[N+](=O)[O-],nt,-2.6
Cc1cc(N)n(-c2nc3ccccc3n2Cc2ccc(C#N)cc2)n1,-0.35,-0.12
O=C(Cn1c(=O)n(Cc2cccs2)c(=O)c2cccnc21)Nc1ccccc1,-0.05,1.1
COC(=O)c1ccc(CSc2ncnc3c2oc2ccccc23)o1,0.15,-0.015
O=c1c(COCc2cccc(C(F)(F)F)c2)cc2cccc3c2n1CCC3,nt,4.5
O=S(=O)(Nc1cc(Sc2ncn[nH]2)c(O)c2ccccc12)c1cccs1,0.15,nt
COc1cccc(C(=O)Oc2ccc3c(c2)NC(C)(C)C=C3C)c1,1.1,0.97

# Compound profiles, from the list above.
# COc1ccc(C2NCCc3c2[nH]c2ccccc32)cc1CSc1nc2ccccc2[nH]1 (centres undefined) across the screens: AID504770 = nt; CapD inh = 0.26
# O=C(c1cccc(Oc2ccccc2)c1)N1CCN(C2CCS(=O)(=O)C2)CC1 (centres undefined) across the screens: AID504770 = 1.7; CapD inh = nt
